TAR Tat displ: HIV-1 TAR-Tat binding disruption; z-score (test concentration not listed); 100,000 tested, 0.6% active; HIV-1 TAR RNA, Tat peptide displacement FRET; stronger effect = higher value; AID 1259389;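 also: score is relative to mean and SD of negative controls; some compounds called inactive have numbers as strong as hits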
CDC25B-CDK2 inh: human CDC25B-CDK2/CyclinA binding inhibition; HTRF CDC25B-CDK2/CyclinA binding, anti-His/anti-Flag; stronger effect = higher value; z-score (no concentration beside the values); 94,000 tested, 0.72% active; AID 1259370;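 also: score is relative to mean and SD of negative controls; strong numbers were not always called active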
* hit, by the source's call; . = not tested or not shown.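 The calls were made as follows: active = z-score from 3 up in half or more of its runs; inactive = the rest.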

SMILES	TAR Tat displ	CDC25B-CDK2 inh
COc1ccc(S(=O)(=O)c2c(C(=O)c3ccccc3)cnc3ccc(F)cc23)cc1	-0.9	-1.2
COC(=O)C1C(=O)NC(SCC(N)=O)=C(C#N)C1c1ccc(Cl)cc1 (configuration not stated)	-6.4	-0.37
CN(C)c1ccc(C(CNS(=O)(=O)c2ccc(Cl)cc2)N2CCCC2)cc1 (configuration not stated)	1.3	.
Cc1ccc(S(=O)(=O)O/N=C(\N)CC(=O)Nc2cc(C(F)(F)F)ccc2Cl)cc1	.	-0.73
Cc1c2cnn(-c3ccccc3)c(=O)c2c(C)n1CC(=O)O	1.7	-1.6
O=C(Nc1cccc(Cl)c1)C1Nc2ccccc2S(=O)(=O)N1 (configuration not stated)	-0.48	.
CCN1CCN(c2ccc(N3CCC(C(=O)N4CCN(C(=O)c5ccco5)CC4)CC3)nn2)CC1	1.1	.
Cc1nn(-c2nc3ccc(Br)cc3s2)c2c1C(c1cccs1)CC(=O)N2 (configuration not stated)	1.3	.
O=C(Nc1c[nH]c2ccccc2c1=O)N1CCN(c2cccc(Cl)c2)CC1	0.96	-1.2
N#CCC(=O)NNC(=O)c1ccccc1Cl	.	-1.4
CCC(Cn1nnc2ccccc2c1=O)NC(=O)Nc1ccc2c(c1)OCCO2 (configuration not stated)	0.81	-0.04
Cn1c(=O)c2c(ncn2CC(=O)NCc2cccnc2)n(C)c1=O	-0.26	-1.8

As entered above.
Value for COc1ccc(S(=O)(=O)c2c(C(=O)c3ccccc3)cnc3ccc(F)cc23)cc1 in TAR Tat displ: -0.9
Value for CCC(Cn1nnc2ccccc2c1=O)NC(=O)Nc1ccc2c(c1)OCCO2 (configuration not stated) in CDC25B-CDK2 inh: -0.04
Value for CN(C)c1ccc(C(CNS(=O)(=O)c2ccc(Cl)cc2)N2CCCC2)cc1 (configuration not stated) in TAR Tat displ: 1.3
Value for O=C(Nc1cccc(Cl)c1)C1Nc2ccccc2S(=O)(=O)N1 (configuration not stated) in TAR Tat displ: -0.48
Value for COC(=O)C1C(=O)NC(SCC(N)=O)=C(C#N)C1c1ccc(Cl)cc1 (configuration not stated) in TAR Tat displ: -6.4

Other results
SMILES	TAR Tat displ	CDC25B-CDK2 inh
CC1=C(C(=O)OC2CCCC2)C(c2cccnc2)C2=C(CC(C)(C)CC2=O)N1 (configuration not stated)	2.4	-2.3
O=C(CCCc1nc2cccnc2n1C1CCCCC1)N1CCN(c2ccccc2)CC1	-1	.
CCOc1ccc(S(=O)(=O)Nc2ccc(Cl)cn2)c(C)c1C	0.42	-0.51
CCOc1ccc(NC(=O)N2CCN(c3cc(N4CCOCC4)nc(C)n3)CC2)cc1	1.4	-1.5
COC(=O)c1cc2sccc2n1CC(=O)N(C)c1ccccc1	1.1	-1.2
CCOC(=O)C(C(=O)NCC1CCCO1)C1CCCCC1 (configuration not stated)	0.28	-0.46
CC1(C)Cc2ccccc2C(NC(=O)Nc2ccc(F)cc2)=C1C#N	0.21	-0.73
CCCc1cc(=O)oc2c(C)c(OCC(=O)OCc3ccccc3)ccc12	.	0.35
CCOc1cc(C2=NN(C(C)=O)C(c3ccncc3)O2)ccc1OC(C)=O (configuration not stated)	-1.4	.
CN1CCN(C(=O)C2=CC(c3cccs3)=NS(=O)(=O)N2C)CC1	0.3	-1.9
COc1cccc(CN2CCN(Cc3c[nH]c4ccccc34)CC2)c1OC	0.49	0.51
NC1=NC2(CCCCC2)N=C(Nc2cccc(F)c2)N1	.	0.2
CCCCC(=O)Nc1nnc(SCc2cc(=O)n3c4c(sc3n2)CCCC4)s1	0.28	.
O=C(Cc1ccccc1)OCc1cc(=O)n2ccsc2n1	0.88	.
CCc1nn(CC(=O)NCCN2CCOCC2)c(=O)c2cc3sc(C)cc3n12	-0.61	-1.8
O=S1(=O)C[C@H](NCc2ccc3c(c2)OCO3)[C@@H](S(=O)(=O)c2ccc(F)cc2)C1	1.4	-0.59
CC1CC(C)CN(C(=O)CN(C)S(=O)(=O)c2cc3c(cc2Cl)NC(=O)CO3)C1 (configuration not stated)	1.9	.
COc1cc(OC)cc(C(C)(C)OC(=O)N[C@@H](CCC(N)=O)C(=O)O)c1	.	-1.4
Cc1ccc(NC(=O)c2cnc3sccn3c2=O)cc1F	.	-2.2
O=C1NC(Cc2ccccc2)C(=O)N1c1ccccc1 (configuration not stated)	.	-1.8
C=CCSc1nc(C)nc2c1sc1nc3c(cc12)COC(C)(C)C3	-0.25	.
Cc1ccc(NS(=O)(=O)c2c(C)nc3sccn3c2=O)c(Cl)c1	2	-1.8
Cc1nc(Nc2nc3ccccc3s2)nc2c1CCC2	.	-0.96
Cc1ccc(Nc2ccnc3cc(Cl)ccc23)cc1F	.	-0.5
CC1(C)CC(NS(=O)(=O)c2ccc(Cl)cc2)CC(C)(C)N1	.	-1.4
CCOc1ccc(OCC)c(Nc2nc3ccc(Cl)cc3n3cnnc23)c1	3.4	-1.4
Nc1c(C(=O)OCc2ccc(F)c(F)c2)sc2ccccc12	2.1	.
O=C(NC1CCCC1)NC(c1ccccc1)c1nnc(-c2ccccc2Cl)o1 (configuration not stated)	1.2	.
CC1CCCCC1NC(=O)c1cc2cccc3c2n1CCS3 (configuration not stated)	1.1	.
CC(C)CC(=O)NCCNC(=O)c1nonc1N	0.58	0.05
CCC(C)N(CCNC(=O)Cc1noc2ccccc12)Cc1ccco1 (configuration not stated)	0.83	-1.6
CN(C)c1nc2nc[nH]c(=O)c2s1	0.87	-0.97
Cc1nc2c3ccccc3nc(N3CCC(C(N)=O)(N4CCCCC4)CC3)n2n1	-0.14	-1.5
Cc1nn(CC(=O)Nc2ccc(F)cc2)c(=O)c2cccn12	1.5	-1.1
O=C(Nc1nnc2n1CCCS2)c1ccccc1Br	1.1	.
CN1CCc2c(sc(-n3cccc3)c2CNC(=O)Nc2cccc(Cl)c2)C1	-6.8	.

Retrieved one by one from the entries so far:
SMILES	TAR Tat displ	CDC25B-CDK2 inh
Cn1c(=O)c2c(ncn2CC(=O)NCc2cccnc2)n(C)c1=O	-0.26	-1.8
CCC(Cn1nnc2ccccc2c1=O)NC(=O)Nc1ccc2c(c1)OCCO2 (configuration not stated)	0.81	-0.04
Cc1ccc(NC(=O)c2cnc3sccn3c2=O)cc1F	.	-2.2

Going on with the list.
SMILES	TAR Tat displ	CDC25B-CDK2 inh
C=CCOc1ccc(/C(O)=C2\C(=O)C(=O)N(CCN3CCOCC3)C2c2ccc(C)cc2)c(C)c1 (configuration not stated)	.	-3.3
COc1cccc2c1Oc1[nH]c(-c3cccc(O)c3)nc(=S)c1C2	2.1	-2
COc1ccc(Br)cc1S(=O)(=O)NCCn1nc(-c2ccc(F)cc2)ccc1=O	-0.35	.
CCCCn1c(O)c(C2=Nc3ccccc3SC(c3ccc4c(c3)OCO4)C2)c(=O)[nH]c1=O (configuration not stated)	2.8	2.1
CC1(C)CC(=O)C2=C(C1)Nc1cc3c(cc1C2c1cccc(Cl)c1)OCCO3 (configuration not stated)	.	0.98
O=C1CC(c2ccc(F)c(F)c2)c2cc3c(cc2N1)OCO3 (configuration not stated)	1.6	-0.59
CCCN(CCC)S(=O)(=O)c1ccc2[nH]c(=O)ccc2c1	1.9	.
Cc1ccc(C)c(CN2C(=O)N(c3ccc(F)cc3)C3CS(=O)(=O)CC32)c1 (configuration not stated)	0.33	.
COc1nc(C)nc(NC(=O)NC(=O)c2cc(OCC(F)(F)F)ccc2OCC(F)(F)F)n1	.	1.2
O=C(Nc1ccc(Br)cc1)c1cc(S(=O)(=O)NC2CCCCC2)ccc1Cl	.	2
C/C=C/COC(=O)c1[nH]c2c(c1C)C(=O)CC(c1cc(OC)ccc1OC)C2 (configuration not stated)	-2.3	-1.7
Cc1sc(NC(=O)c2cc3c([nH]c2=O)CC(C)(C)CC3=O)nc1-c1ccc(C(C)C)cc1	-0.22	-1.1
COc1ccc(Br)cc1CNC(=O)CN(C)c1nnc(N2CCCC2=O)s1	1.4	-2.8
CC(C)C(=O)N1c2ccccc2C(N(C(=O)C(C)C)c2ccccc2)CC1C (configuration not stated)	-0.43	-1.3
COC(=O)C1=C(C)NC2=C(C(=O)CCC2)C1c1cccnc1 (configuration not stated)	.	-0.2
CCn1cc(S(=O)(=O)c2ccc(C)c(C)c2)c(=O)c2cc(F)c(N3CCN(C)CC3)cc21	-2.2	.
Cn1c(=O)c2c(-c3ccccc3Cl)n(C(CO)(CO)CO)cc2n(C)c1=O	-0.19	-0.91
CCOc1ccc2nc(NC(=O)C3CCN(c4ncnc5c4nc4n5CCCCC4)CC3)sc2c1	0.39	.
C=CCn1c(NCCN(CC)CC)nc2c1c(=O)[nH]c(=O)n2C	.	-0.05
CN(c1cc(C(F)(F)F)ccn1)N1C(=O)c2ccccc2C1=O	.	-0.07
COC(=O)c1ccc(-n2nnc3c(sc4nc(C)ccc43)c2=O)cc1	0.19	1.7
CC(C)CNc1cc(N2CCN(C)CC2)c2noc3c2c1C(=O)c1ccccc1-3	-5.7	-2.9
COC(=O)c1sc2cccc(F)c2c1S(=O)(=O)Nc1ccc(F)cc1	2.4	.
COC(=O)c1ccc(C(c2c(C)[nH][nH]c2=O)c2c(C)[nH][nH]c2=O)cc1	0.59	-1.2
Cc1ccc(-c2noc(C(C)Oc3ccccc3)n2)cc1 (configuration not stated)	-0.08	-2.4
CC(=O)C1=NN(c2ccc(C)cc2)C2C(=O)N(c3ccc(Br)cc3)C(=O)C12 (configuration not stated)	.	0.3
CC1=C(C(=O)OC2CCCC2)C(c2ccc(F)cc2F)CC(=O)N1 (configuration not stated)	0.12	-2
CCc1nn(CC(=O)NCCCN2CCCC2)c(=O)c2cc3sccc3n12	1.4	-0.52
Cc1ccc(N2CC(c3nnc(Cc4ccc(F)cc4Cl)o3)CC2=O)cc1 (configuration not stated)	-0.22	-1.9
CCc1cc2c(=O)n(-c3ccccc3)c(SCC(=O)OC)nc2s1	.	-0.96
Cc1nn(-c2ccc(N3CCCC3)nn2)c(C)c1CCC(=O)NCCCN1CCOCC1	0.62	.
O=C(NCc1cccn1Cc1ccccc1F)NC1CCCC1	1.3	.
O=c1[nH]c2cc3c(cc2c(=O)n1CCCc1nc(-c2ccc(Br)cc2)no1)OCO3	-0.12	.
O=C(O)C1CCN(c2ncnc3onc(-c4cccc(F)c4)c23)CC1	0.72	-0.75
Cc1cc2nc(C(F)(F)F)c(=O)n(C(C)C(=O)O)c2cc1C (configuration not stated)	-0.17	0.85
Cc1ccc2ncnc(Oc3ncccc3[N+](=O)[O-])c2c1	.	-1.9
COc1ccc2ccccc2c1C1OC(c2ccc(Br)cc2)=NN1C(C)=O (configuration not stated)	1.3	.
Cc1oc2ccc(NS(=O)(=O)c3cccc4cccnc34)cc2c1C(=O)OC(C)C	0.39	-2.4
CSc1nsc(SC)c1C(=O)N1CCN(S(=O)(=O)c2ccc(C)cc2)C1C(C)C (configuration not stated)	-0.32	-1.1
CC(C)CNC(=O)CCC(=O)N1c2ccccc2NC2=C(C(=O)CCC2)C1c1ccco1 (configuration not stated)	1.7	.
Cc1ccc2snc(C(=O)N3CCN(C(=O)c4cc(-c5cccs5)[nH]n4)CC3)c2c1	-1.6	.
Cc1c(C(=O)Nc2ccc3nsnc3c2)oc2ccccc12	-0.33	0.1
CN(C)c1ccnc2sc3c(N(CCO)CCO)ncnc3c12	1.6	-0.98
O=c1c2nccnc2nc(SCc2cccc(Cl)c2)n1Cc1cccs1	2.3	.
C=CCSc1nc2c(c(=O)[nH]1)C(c1cc(C)ccc1C)CC(=O)N2 (configuration not stated)	1.3	1.4
COc1ccc(-c2cc3cc(OC)c(OC)cc3c(C)n2)cc1OC	.	-0.02
CN1CCN(C(=O)Nc2ccc3c(c2)N(C)C(=O)c2ccccc2S3)CC1	1.1	-2.3
CCCc1nn2c(=O)cc(COC(=O)CSc3ccc(C)cc3)nc2s1	0.79	.

Grouped by structure, the entries above containing a cyano group.
SMILES	TAR Tat displ	CDC25B-CDK2 inh
COC(=O)C1C(=O)NC(SCC(N)=O)=C(C#N)C1c1ccc(Cl)cc1 (configuration not stated)	-6.4	-0.37
N#CCC(=O)NNC(=O)c1ccccc1Cl	.	-1.4
CC1(C)Cc2ccccc2C(NC(=O)Nc2ccc(F)cc2)=C1C#N	0.21	-0.73

Carrying on:
SMILES	TAR Tat displ	CDC25B-CDK2 inh
CCc1ccc(C2CC(=O)Nc3c2c(C)nn3-c2nc3ccccc3[nH]2)s1 (configuration not stated)	1.6	.
C=CCSc1nnc2c(n1)OC(c1ccc(N(C)C)cc1)N(C(C)=O)c1ccccc1-2 (configuration not stated)	0.44	-2
CSc1ccc2nnc(-c3ccc(C)cc3)n2n1	.	-1.6
CC(C)Cc1nn2c(=O)cc(COC(=O)c3cccc(F)c3)nc2s1	0.67	.
COc1ccccc1CNC(=S)NN	.	-0.51
CC1(C)CC(Nc2ccc(Cl)cc2)CCO1 (configuration not stated)	1.6	-0.83
Cn1nc(C(=O)N2CCN(C(=O)c3ccco3)CC2)c2c1-c1ccccc1SC2	-0.36	-1.5
CCn1cc(C(=O)N2CC(C)CC(C)C2)c(=O)c2cc(S(=O)(=O)N3CC(C)CC(C)C3)ccc21 (configuration not stated)	1.1	-0.47
CCCc1cc(=O)c2ccc(O)cc2o1	.	-0.4
COc1cccc(-n2ccnc(OC)c2=O)c1	1.7	0.8
O=c1c(-c2ccc(O)cc2)coc2cc(O[C@@H]3O[C@H](CO)[C@@H](O)[C@H](O)[C@H]3O)cc(O)c12	2.3	.
CCCN(CCC)C(=O)C1CCCN(S(=O)(=O)c2ccc3c(c2)CC(C)N3C(=O)C2CC2)C1 (configuration not stated)	0.93	.
COc1ccccc1OCC(=O)Nc1nc(-c2cccs2)ns1	2.8	0.17
O=C(NCc1ccc(Cl)cc1)C(=O)NCC(c1ccco1)S(=O)(=O)c1cccs1 (configuration not stated)	1.6	.
O=C(COC(=O)C1CCN(S(=O)(=O)c2cccc3cccnc23)CC1)c1ccc(Cl)cc1	.	-3.4

This is a random part of the collection. Share with any hit: about 0.87%.
